From PubChem
D2 PAM – potentiates the human D2 dopamine receptor allosterically | DiscoveRx D2 beta-arrestin cells, luminescence, 90 min; 100% = 57 uM dopamine signal | P14416 | 360,000 tested, 0.23% active | AID 624464 | potentiation, % (test concentration not listed); active = potentiation of 50% or more; inconclusive = 30% to 50%; inactive = 30% or less;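 also: compound concentration not given in the record; tested on top of an EC20 dose of dopamine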
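PathHunter beta-arrestin assay in DiscoveRx D2 cells. Compounds were added with an EC20 of dopamine (50 nM final) for 90 min at 37 deg C. Luminescence was read 1 h after detection reagent, with 57 uM dopamine as the EC100 control.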
gsp antagonist – antagonists of gsp mutant (McCune-Albright syndrome). gsp-mutant cells, cAMP HTRF, 30 min; control for the full effect not named in the record. Potency, µM (highest dose often 76.9 µM), inactives show at the highest dose activity change, negative = inhibition, actives largely listed as inhibitors. 340,000 tested, 0.4% active; active = falling curve of any shape with a large fitted effect; inconclusive = falling curve, mostly with a smaller effect; inactive = flat or rising curve; cell line not stated here;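 also: intracellular cAMP measured with PDE inhibitor Ro 20-1724 present during compound exposure; potency is read from the fitted curve at half-maximal effect; % is scaled to controls: 0 for no effect and ±100 for the full control effect; nearly all actives have a fitted effect of over 65% in size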
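Cells in G418 medium, seeded 16-24 h, 37C; buffer exchange to DPBS + 1 mM CaCl2, 0.5 mM MgCl2, 0.05% BSA; cpds in DMSO + […] (300 uM stock), 30 min 37C; HTRF cAMP detection.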
Six1-Eya2 blk – Six1/Eya2 interaction inhibition; AID 651725; AlphaScreen GST-Six1/His-Eya2 binding, biochemical; stronger effect = lower value; control for the full effect not named in the record; 360,000 tested, 0.56% active; Q15475+O00167; activity change, % (test concentration not listed); in the data active = activity change below about -65%; inconclusive = about -30% to -65%; inactive = above about -30%; also: % is scaled to controls: 0 for no effect and ±100 for the full control effect; compound concentration not given in the record
Target sequence (O00167 whole entry, looked up): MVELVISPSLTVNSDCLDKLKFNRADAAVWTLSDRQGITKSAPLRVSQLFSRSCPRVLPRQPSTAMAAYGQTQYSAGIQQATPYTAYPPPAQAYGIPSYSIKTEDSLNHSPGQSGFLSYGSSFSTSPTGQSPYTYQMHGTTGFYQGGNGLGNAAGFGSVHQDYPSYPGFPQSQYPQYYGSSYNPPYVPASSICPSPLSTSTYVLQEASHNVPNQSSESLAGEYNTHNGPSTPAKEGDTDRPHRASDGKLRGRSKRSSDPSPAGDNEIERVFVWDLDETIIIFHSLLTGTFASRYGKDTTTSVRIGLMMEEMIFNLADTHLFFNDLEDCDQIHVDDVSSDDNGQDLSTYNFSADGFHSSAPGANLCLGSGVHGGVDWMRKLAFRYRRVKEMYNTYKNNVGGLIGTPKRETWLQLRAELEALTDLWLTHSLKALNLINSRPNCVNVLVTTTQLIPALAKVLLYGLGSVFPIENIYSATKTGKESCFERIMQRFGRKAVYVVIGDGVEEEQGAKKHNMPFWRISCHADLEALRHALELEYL
Target sequence (Q15475 whole entry, looked up): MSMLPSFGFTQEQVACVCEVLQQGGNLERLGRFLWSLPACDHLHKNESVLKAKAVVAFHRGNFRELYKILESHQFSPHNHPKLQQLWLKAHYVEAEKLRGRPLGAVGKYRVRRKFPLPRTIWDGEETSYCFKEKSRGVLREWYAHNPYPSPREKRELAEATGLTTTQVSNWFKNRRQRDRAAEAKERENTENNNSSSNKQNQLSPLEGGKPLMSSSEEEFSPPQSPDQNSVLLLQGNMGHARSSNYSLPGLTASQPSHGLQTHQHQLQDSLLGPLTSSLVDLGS
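Homogeneous AlphaScreen proximity assay pairing GST-Six1 with His-tagged Eya2 (added as 5X mix: 250 nM and 500 nM) in 50 mM Tris pH 8.0, 300 mM NaCl, 1 mM TCEP. Glutathione donor and nickel acceptor beads; 1 h, 37 °C, dark.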
D2 ag – agonists of human D2 dopamine receptor (beta-arrestin); 360,000 tested, 0.084% active; AID 624465; activation, % (test concentration not listed); DiscoveRx PathHunter D2 beta-arrestin, luminescence, 90 min; 100% = 57 uM dopamine signal; P14416; in the data active = activation above about 40%; inconclusive = about 15% to 40%; inactive = below about 15%; also: compound concentration not given in the record; the text of the record calls up to 30% inactive
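Agonist mode: compounds alone added to overnight-plated D2 PathHunter cells for 90 min at 37 C, with 57 uM final dopamine (EC100) defining full response. Beta-arrestin recruitment detected by chemiluminescent reagent, read after 1 h at ambient temperature.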
gsp agonist – agonists of gsp mutant (McCune-Albright syndrome); Potency, µM (series often up to 76.9 µM), without a hit: top-dose activation (cAMP increase), hits mostly activators; 340,000 tested, 0.13% active; gsp mutant cells, cAMP HTRF, 30 min; control for the full effect not named in the record; active = well fitted activation curve with a large enough effect; inconclusive = small, poorly fitted or top-dose-only effect, or another doubt; inactive = no such curve, though single readings can be large or run the other way; cell line not stated here;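 also: phosphodiesterase inhibitor Ro 20-1724 added with compounds to block cAMP breakdown; potency is read from the fitted curve at half-maximal effect; nearly all actives have a fitted effect of over 60% in size; about a fifth of the inactives were tested at one dose only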
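Cells stably selected in G418 were plated at 2000/well, grown 16-24 hr, then given compounds in DMSO with the PDE inhibitor […] (300 uM solution added) for 30 min at 37C; cAMP was read by HTRF.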
CtBP-E1A blk – inhibitors of CtBP/E1A interaction; AlphaScreen GST-E1A/His-CtBP binding, 1536-well; stronger effect = lower value; control for the full effect not named in the record; AID 651724; activity change, % (test concentration not listed); 340,000 tested, 0.49% active; in the data active means activity change below about -65%; inconclusive means about -30% to -65%; inactive means above about -30%; also: % is scaled to controls: 0 for no effect and ±100 for the full control effect; compound concentration not given in the record
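Protein mix (5X: 125 nM each GST-E1A, His-CtBP) was incubated with pinned compound 2 h at 37 deg C in dark, in 50 mM Tris pH 8.0 buffer with 300 mM NaCl. Glutathione donor and nickel acceptor beads followed; AlphaScreen signal read after 1 h.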
Numbers without * were called inactive; ? = inconclusive; / = not tested or not shown; [ ] = dose if it differs, or a comment.

Order of values – D2 PAM	gsp antagonist	Six1-Eya2 blk	D2 ag	gsp agonist	CtBP-E1A blk
CCOc1ccc2nc(NC(=O)c3ccoc3C)sc2c1
 : -2	-12%	-7	-1.5	10%	-10
O=C1CCCN1c1nccs1
 : -1	8%	4	-5.7	8%	-22
CC1(C)NC(=O)N(CC(O)COc2ccc(-c3ccccc3)cc2)C1=O (centres undefined)
 : -5	13%	3	-3.1	?	3
O=C(O)CN1C(=O)CC(Cc2ccccc2)C1=O (centres undefined)
 : -15	11%	2	-0.6	-30%	-1
O=C1c2ccccc2C(=O)N1Cc1ccc2c(c1)OCO2
 : 2	-1%	7	-0.7	10%	2
O=C(O)Cn1nnc2ccccc21
 : -9	8%	18	-4.6	19%	3
COc1cc2c(c(OC)c1OC)-c1c(cc(OC)c(OC)c1OC)C[C@](C)(O)[C@@H](C)C2
 : -2	5%	1	-2.3	/	8
O=C(CN1CCCC1)OCCCC1CCCCC1
 : 0	7%	2	3.6	28%	-3
COCCOC(=O)C1=C(C)NC(=O)NC1c1ccc(-c2ccc(F)cc2)o1 (centres undefined)
 : -9	4%	7	-5.2	34%[15.4 µM]	0
Cc1onc(-c2ccccc2)c1C(=O)N/N=C/c1c(F)cccc1Cl
 : -40	-9%	3	0.0	-9%[15.4 µM]	-7
CCc1ccccc1N(CC(=O)NC(C)(C)C)C(=O)CCC(=O)Nc1ccccn1
 : -1	4%	-1	0.7	-14%	/
C/C(Cc1ccccc1)=N\NC(=O)CNC(=O)COc1ccccc1
 : 1	9%	2	0.1	7%[15.4 µM]	0
COc1cc(NC(=O)COC(=O)CNS(=O)(=O)c2ccc(F)c(F)c2F)cc(OC)c1
 : -21	-16%	8	-1.9	-1%	1
COc1cc(/C=C/C(=O)OCC(=O)Nc2c(C)n(C)n(-c3ccccc3)c2=O)ccc1OCC#N
 : -8	18%	1	-0.5	-10%	/
COc1ccccc1C(=O)OCC(=O)NCCNC(=O)COC(=O)c1ccccc1OC
 : -5	7%	3	-5.0	-21%	5
COc1ccc(S(=O)(=O)n2ccc(C)n2)cc1C
 : 11	-10%	4	-1.0	27%	12
CC(C)Cn1c(-c2ccc(Br)cc2)c[nH]c1=S
 : -9	-14%	-14	-20	?	0
CCc1nc2ccc(C(=O)Nc3ccc(C(N)=O)cc3)cn2c1N(C)CCC(C)C
 : -25	/	-14	2.9	/	-11
O=C(CCc1ccccc1)N=C1SC2CS(=O)(=O)CC2N1Cc1ccccc1 (centres undefined)
 : -4	1%	2	6.2	16%	-6
O=C(Nc1ccc(NC(=O)c2ccco2)nc1)c1cccnc1
 : -6	11%	-3	-0.9	1%	1
C/C(=N/NC(=O)c1ccco1)c1cccnc1
 : -8	-4%	4	0.7	-6%	/
CCOC(=O)N1CCN(C(=O)c2cc3c(-c4ccc(Cl)cc4)nn(C)c3s2)CC1
 : -8	-9%	0	-6.8	2%	4
COc1oc(C(=O)NC2CCCCC2)c(-c2ccc(Cl)cc2)c1S(=O)(=O)c1ccccc1
 : -12	?	-12	-6.6	8%	3
COc1ccc([C@@H]2CC=C(C(=O)O)[C@H](c3ccc(Cl)cc3)N2S(=O)(=O)c2ccccc2C)cc1
 : -10	-3%	5	-0.9	/	3
COc1ccc(S(=O)(=O)Nc2ccccc2C)cc1
 : -5	-5%	3	0.9	17%	-6
Cc1cccc(NC(=O)COc2coc(CN3CCN(c4ccccc4)CC3)cc2=O)c1
 : -24	-4%	0	2.9	3%	1
C[C@@H]1CN(S(=O)C(C)(C)C)[C@@H](CCO)/C1=C\CCO (some centres undefined)
 : /	10%	5	-0.5	/	5
N#CCC(=O)Nc1ncn(Cc2ccccc2Cl)n1
 : -14	6%	0	-3.5	-24%	-3
CC(=O)C1C(c2cccc(Oc3ccccc3)c2)NC(=O)NC1(O)C(F)(F)F (centres undefined)
 : -10	8%	-1	-2.5	-4%[15.4 µM]	6
C=C[C@@H]1c2cc(C)ccc2N(S(=O)(=O)c2ccc(C)cc2)[C@H](c2ccccc2)C1(C#N)C#N
 : -8	-7%	12	-1.9	-29%	-1
CN(C)C(=O)CNc1ccn2nc(-c3cccc(Cl)c3)cc2n1
 : 3	/	2	6.9	/	-9
O=C(N/N=C/c1ccccc1Cl)c1n[nH]c2c1CCCC2
 : -1	6%	1	-1.5	?	/
CC(=O)OC1CCC2(C)C(CCC3C2CC(=NO)C2(C)C(C(C)OC(C)=O)CCC32)C1 (centres undefined)
 : -11	-11%	-3	-1.4	?	8
Fc1ccc(NC(=S)Nc2ccc(Cl)cc2)cc1
 : -1	3%	0	7.7	-6%	0
C[C@H](CO)N1C[C@H](C)[C@@H](CN(C)CC2CC2)Oc2c(NS(=O)(=O)c3ccccc3)cccc2C1=O
 : 1	1%	-1	-6.3	-91%[inhibitor]	6
FC(F)(F)c1cnc2c(-c3ccc(Cl)cc3Cl)noc2c1
 : 3	3%	32	-0.3	?	23
O=C(c1ccc([N+](=O)[O-])cc1)N1CCN(Cc2ccccc2)CC1
 : -29	2%	-2	-1.4	-10%	-8
COc1ccc(C(=O)N2CC(=O)Nc3ccccc32)cc1S(=O)(=O)N1CCCC1
 : 6	-7%	-2	5.8	4%[15.4 µM]	3
Cc1c(CC(Cl)(Cl)Cl)c2c(n1O)CC(C)(C)CC2=O
 : -13	-22%	2	-1.0	-2%	12
O=C(O)c1ccccc1-c1ccccc1C(=O)NCc1cccc(C(F)(F)F)c1
 : -10	10%	4	-2.4	6%[15.4 µM]	6
CN(C)c1ccc(C(=O)N=c2sccn2C)cc1[N+](=O)[O-]
 : 2	1%	-3	-1.9	-34%[inhibitor]	6
COC(=O)c1c(C)[nH]c(C(=O)COC(=O)CCNS(=O)(=O)c2cccc(C(F)(F)F)c2)c1C
 : -14	?	0	2.4	5%	-19
Cc1ccc(C)c(S(=O)(=O)N2CCN(c3ncccn3)CC2)c1
 : -6	6%	13	3.1	6%[15.4 µM]	/
COc1ccccc1NC(=O)c1sc2nc3n(c(=O)c2c1C)CCC3
 : -4	-2%	8	-1.5	?	/
COc1cc(C(=O)NC2CC3CCCC(C2)N3CC(=O)Nc2ccccc2)cc(OC)c1OC (centres undefined)
 : -18	5%	-1	-2.2	-3%	4
COc1ccc(CC(=O)Oc2ccc(C)cc2C)cc1
 : 4	-5%	37	-0.2	-35%[inhibitor]	44
Cc1nc2ccc(NC(=O)CSc3nnc(C)s3)cc2[nH]1
 : -1	3%	5	-1.4	-17%	5
O=C1NCCN(Cc2ccc(Cl)c(F)c2)C1CC(=O)N1CCc2ccccc2C1 (centres undefined)
 : -4	-5%	-4	-0.4	?	0
CN(C)CCOC(=O)c1sc2ccccc2c1Cl
 : -13	17%	-5	-2.8	?	-3
CC(C)CCNc1nc2ccccc2nc1NS(=O)(=O)c1cccs1
 : 1	-16%	4	-3.1	-18%[15.4 µM]	3
CC[C@H](C)[C@@H](N)C(=O)NC[C@H]1O[C@@H](n2cnc3c(=O)[nH]c(N)nc32)[C@H](O)[C@@H]1O
 : -2	/	2	-3.3	/	1
COc1ccc(CCNc2oc(-c3ccc(C)cc3)nc2C#N)cc1OC
 : -2	-16%	-13	-3.9	-14%	-7
CCOC(=O)c1cc2c(=O)[nH]c(C(Cl)(Cl)Cl)nc2o1
 : 8	?	0	3.8	-15%	-7
O=C(CCN1CCCC1=O)NC1CCCc2c1cnn2-c1ccccc1F (centres undefined)
 : -6	26%	0	2.2	6%	-3
CCCS(=O)(=O)c1ccc(COC(=O)c2cccc(NC(=O)C(C)C)c2)cc1
 : 17	/	0	4.4	19%[15.4 µM]	19
NC(=O)CSc1nnc(-c2ccncc2)o1
 : -1	8%	4	0.9	-25%	-11
O=C(NC1CC1)c1sc2cc(F)ccc2c1Cl
 : 1	11%	25	-1.9	-37%[inhibitor]	/
CCCCSc1nc2c(cc1C#N)CCC2
 : -1	-15%	44	-0.8	?	56
Cc1ccc(CCN2CC(C(=O)NCCN3CCOCC3)CC2=O)cc1 (centres undefined)
 : -17	4%	0	-3.0	-43%[inhibitor]	1
Cc1ccc(S(=O)(=O)N(C)c2ccc(OC(=O)c3cccs3)cc2)cc1C
 : 5	-7%	5	0.5	3%	/

Carrying on:
Order of values – D2 PAM	gsp antagonist	Six1-Eya2 blk	D2 ag	gsp agonist	CtBP-E1A blk
CCc1cc(=O)[nH]c(SCc2cccc3ccccc23)n1
 : -8	-12%	0	-0.5	-25%	/
CCC(NC(=O)Cc1cccs1)c1ccccc1 (centres undefined)
 : 1	9%	3	-2.4	-66%[inhibitor]	3
COc1ccc(C(=O)Nc2ccccc2C(=O)O)cc1Cl
 : 4	?	-10	-1.6	-10%	-8
O=c1sc2ccccc2c(N2CCCCC2)c1[N+](=O)[O-]
 : 0	-10%	1	0.5	-3%	0
Cc1ccc(-c2noc(CNc3ccccc3)n2)cc1
 : 3	6%	8	-0.9	?	7
CCCOc1ccc(NC(=O)c2c(-c3ccccc3)noc2C)cc1
 : 1	0%	8	-6.1	6%	-22
O=S(=O)(CS(=O)(=O)c1ccc(Cl)cc1)c1ccc(Cl)cc1
 : 2	8%	7	1.4	-1%[15.4 µM]	1
COc1ccc2ccc(OCC(=O)Nc3cc(C)on3)cc2c1
 : -1	6%	3	5.2	?	8

Molecules listed so far that contain an NH in an aromatic ring, in the order listed:
Order of values – D2 PAM	gsp antagonist	Six1-Eya2 blk	D2 ag	gsp agonist	CtBP-E1A blk
CC(C)Cn1c(-c2ccc(Br)cc2)c[nH]c1=S
 : -9	-14%	-14	-20	?	0
O=C(N/N=C/c1ccccc1Cl)c1n[nH]c2c1CCCC2
 : -1	6%	1	-1.5	?	/
COC(=O)c1c(C)[nH]c(C(=O)COC(=O)CCNS(=O)(=O)c2cccc(C(F)(F)F)c2)c1C
 : -14	?	0	2.4	5%	-19
Cc1nc2ccc(NC(=O)CSc3nnc(C)s3)cc2[nH]1
 : -1	3%	5	-1.4	-17%	5
CC[C@H](C)[C@@H](N)C(=O)NC[C@H]1O[C@@H](n2cnc3c(=O)[nH]c(N)nc32)[C@H](O)[C@@H]1O
 : -2	/	2	-3.3	/	1
CCOC(=O)c1cc2c(=O)[nH]c(C(Cl)(Cl)Cl)nc2o1
 : 8	?	0	3.8	-15%	-7
CCc1cc(=O)[nH]c(SCc2cccc3ccccc23)n1
 : -8	-12%	0	-0.5	-25%	/

Molecules above that contain a tert-butyl group:
Order of values – D2 PAM	gsp antagonist	Six1-Eya2 blk	D2 ag	gsp agonist	CtBP-E1A blk
CCc1ccccc1N(CC(=O)NC(C)(C)C)C(=O)CCC(=O)Nc1ccccn1
 : -1	4%	-1	0.7	-14%	/
C[C@@H]1CN(S(=O)C(C)(C)C)[C@@H](CCO)/C1=C\CCO (some centres undefined)
 : /	10%	5	-0.5	/	5
